ClpP mod: qHTS Assay for Activators of ClpP. ATP-dependent Clp protease proteolytic subunit (Bacillus subtilis (strain 168)), P80244. purified B. subtilis ClpP, FRET peptide cleavage, 20 min. Potency, µM (titrated, usually from 57.5 µM), without a hit: at the top dose activity change, negative = active. actives 1.9% (n = 340,000). AID 651965, 2013; active = well fitted falling curve with a large enough effect; inconclusive = small, poorly fitted or top-dose-only effect; inactive = no such curve, though single readings can be large or run the other way; note: potency is the fitted concentration of half-maximal effect; the source files actives as falling curves though it sought activators and does not explain the sign; nearly all actives have a fitted effect of over 65% in size; many hits overshoot -100%
Target sequence (P80244 whole entry, looked up): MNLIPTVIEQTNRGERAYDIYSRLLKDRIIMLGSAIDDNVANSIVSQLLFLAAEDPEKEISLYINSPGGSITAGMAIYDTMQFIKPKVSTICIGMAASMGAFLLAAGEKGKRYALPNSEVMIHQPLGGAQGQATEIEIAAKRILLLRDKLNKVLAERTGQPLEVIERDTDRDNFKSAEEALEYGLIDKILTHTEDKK
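Buffer: 100 mM Tris/HCl pH8, 100 mM KCl, 0.05% low protease BSA, 2.5% glycerol, 0.01% Tween-20. ClpP 10 microg/mL final; 20 min RT; delta FRET normalized to ADEP and DMSO controls.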
TRPML1 blocker: qHTS for Inhibitors of the Human Mucolipin Transient Receptor Potential 1 (TRPML1) | actives 0.02% (n = 390,000) | AID 624415, 2012 | activity change, negative = inhibition, % (concentration not given with the values) | TRPML1-inducible cells, Ca2+ dye fluorescence, FDSS; hits give low values; inhibition of EC80 agonist-evoked calcium signal; in the data active means activity change below about -50%; inconclusive means about -30% to -50%; inactive means above about -30%;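 note: stimulus is agonist 54-4 at its EC80 concentration; % is set by controls: 0 for no effect and ±100 for the full control effect; compound concentration not given in the record; the text of the record puts the active cut at -80%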
Target sequence (Q9GZU1 whole entry, looked up): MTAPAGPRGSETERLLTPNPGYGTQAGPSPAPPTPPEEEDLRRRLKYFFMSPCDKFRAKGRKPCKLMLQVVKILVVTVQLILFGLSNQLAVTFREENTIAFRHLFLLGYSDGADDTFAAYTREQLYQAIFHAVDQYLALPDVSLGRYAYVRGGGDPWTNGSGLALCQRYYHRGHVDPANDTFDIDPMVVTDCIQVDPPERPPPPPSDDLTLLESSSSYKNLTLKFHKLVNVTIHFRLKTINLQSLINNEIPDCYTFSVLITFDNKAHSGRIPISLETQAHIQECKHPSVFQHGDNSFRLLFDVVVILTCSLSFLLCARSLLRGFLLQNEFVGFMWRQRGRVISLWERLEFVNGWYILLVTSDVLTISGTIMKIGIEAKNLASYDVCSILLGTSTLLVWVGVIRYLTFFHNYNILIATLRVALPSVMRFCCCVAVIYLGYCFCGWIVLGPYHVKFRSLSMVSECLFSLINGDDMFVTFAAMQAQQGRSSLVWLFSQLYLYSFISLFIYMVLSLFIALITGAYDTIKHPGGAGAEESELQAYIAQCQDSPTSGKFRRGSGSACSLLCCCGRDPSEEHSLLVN
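Calcium fluorescence in TRPML1-DL cells induced overnight with Tet: a 110 s read after compound pin addition, then a 110 s antagonist read after challenge with 54-4 at 4 uM final (EC80).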
gsp agonist: qHTS for Agonist of gsp, the Etiologic Mutation Responsible for Fibrous Dysplasia/McCune-Albright Syndrome: qHTS; gsp mutant cells, cAMP HTRF, 30 min; control for the full effect not named in the record; AID 624287, 2012; actives 0.13% (n = 340,000); Potency, µM (doses to about 76.9 µM), without a hit: top-dose activation (cAMP increase), actives largely listed as activators; active = well fitted activation curve with a large enough effect; inconclusive = small, poorly fitted or top-dose-only effect, or another doubt; inactive = no such curve, though single readings can be large or run the other way; cell line not stated here;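 note: phosphodiesterase inhibitor Ro 20-1724 added with compounds to block cAMP breakdown; potency is the fitted concentration of half-maximal effect; nearly all actives have a fitted effect of over 60% in size; about a fifth of the inactives were tested at one dose only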
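Cells in DMEM/10% FBS with G418 were pretreated with compounds in DMSO plus […] (300 uM stock) for 30 min at 37C. cAMP was measured by HTRF (cAMP-d2 plus anti-cAMP antibody-K) after 30 min at room temperature.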
Sfp PPTase inh: qHTS Assay for Inhibitors of Bacillus subtilis Sfp phosphopantetheinyl transferase (PPTase). Biochemical Sfp PPTase activity, qHTS. Potency, µM, without a hit: max response, negative = inhibition, most hits filed as inhibitors. actives 3.5% (n = 310,000); active = well fitted inhibition curve with a large enough effect; inconclusive = small, poorly fitted or top-dose-only effect, or another doubt; inactive = no such curve, though single readings can be large or run the other way;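 note: the enzyme is Sfp with the accession as filed and its product quenches rhodamine fluorescence; potency is the fitted concentration of half-maximal effect; 0% = enzyme reaction without inhibitor and -100% = no enzyme wells; top concentration of the series not given in the record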
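Step 1, compound plus 15 nM Sfp-PPTase, 15 min, room temperature. Step 2, add rhodamine-CoA (5 uM) and BHQ-2-YbbR (12.5 uM). Step 3, read 525/598 nm fluorescence at 0 and 30 min.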
Menin MLL FP FL: qHTS Assay for Inhibitors Targeting the Menin-MLL Interaction in MLL Related Leukemias: Competition With Fluorescein Labeled MLL-derived Peptide. Fluorescence polarization, fluorescein-MLL peptide displacement from menin. 290,000 tested, under 10 active. FP activity change, % at 61.4 µM. AID 1766, 2009; inconclusive = falling polarisation curve, or a change in total fluorescence; inactive = total fluorescence flat and polarisation flat or rising; no compound was filed as active; the % refers to the polarisation; negative = inhibition;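 note: % of control where 0% means no effect; inhibitors lower the polarisation; unlabelled MLL peptide was the positive control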
gsp antag: qHTS for Antagonists of gsp, the Etiologic Mutation Responsible for Fibrous Dysplasia/McCune-Albright Syndrome: qHTS; gsp-mutant cells, cAMP HTRF, 30 min; control for the full effect not named in the record; Potency, µM (doses to about 76.9 µM), for the others: at the highest dose activity change, negative = inhibition, most hits filed as inhibitors; actives 0.4% (n = 340,000); active = falling curve of any shape with a large fitted effect; inconclusive = falling curve, mostly with a smaller effect; inactive = flat or rising curve; cell line not stated here;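 note: intracellular cAMP measured with PDE inhibitor Ro 20-1724 present during compound exposure; potency is the fitted concentration of half-maximal effect; % is set by controls: 0 for no effect and ±100 for the full control effect; nearly all actives have a fitted effect of over 65% in size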
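HTRF cAMP measurement after 30 min RT detection following 30 min, 37C compound treatment alongside […] (added as 300 uM solution) in G418-selected cells seeded at 2000/well and grown 16–24 h.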
TRPV1 potentiator: HTS Assay for Compounds that Act as Potentiators of the Vanilloid Receptor 1 | Transient receptor potential cation channel subfamily V member 1 (Homo sapiens), Q8NER1 | TRPV1-expressing cells, Fluo-8 calcium influx, capsaicin EC20 potentiation; host cell line not named in the record; control for the full effect not named in the record | potentiation, % at 8.33 µM | actives 0.02% (n = 320,000); active means potentiation above 80%; inconclusive means 30% to 80%; inactive means below 30%; note: 0% is about no effect
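Cells expressing TRPV1 were dye-loaded with Fluo-8 and read kinetically: 10 s baseline, 3 min after compound (agonist portion), then 2 min after EC20 capsaicin (allosteric enhancer portion). Calcium-bound dye fluorescence at 480/520 nm.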
* hit, by the source's call; ? = inconclusive; . = not tested or not shown; & = joins results of further samples; [ ] = remark or other dose.

Results follow in this order: gsp antag | TRPV1 potentiator | Menin MLL FP FL | ClpP mod | TRPML1 blocker | Sfp PPTase inh | gsp agonist
1. CN(C)Cc1nnnn1-c1ccccc1
  19% | . | 2.2 | . | 5 | 19% | -2%[15.4 µM]
2. CN1C(=O)CC(C(=O)O)SC1=Nc1ccc(F)cc1 (stereo not given)
  1% | -4 | -3.6 | 0.6% | -5 | 27% | -95%[inhibitor]
3. CCn1c(SCC(=O)NCC2CCCO2)nnc1-c1ccc(S(=O)(=O)N2CCN(C)CC2)cc1 (stereo not given)
  8% | 11 | -1.7 | . | 5 | 5% | -6%[15.4 µM]
4. O=C(OC(C(=O)Nc1ccc(Cl)c(C(F)(F)F)c1)c1ccccc1)C1=COCCO1 (stereo not given)
  -2% | 8 | 3.9 | -20% | 6 | 12% | 24%
5. O=C(NC(=S)NC1CCS(=O)(=O)C1)c1ccccc1 (stereo not given)
  11% | 11 | . | 0.4% | -5 | 4% | -13%
6. N#C/C(=C1\CCCN1)c1nc(-c2ccccc2)cs1
  -18% | -14 | 0.4 | -1.6% | -6 | ? | 3%
7. COc1cc(N)c2ncccc2c1Br
  2% | . | . | . | 1 | . | 11%
8. Cn1nc(C(=O)NC2CCCC2)c2ccccc2c1=O
  5% | -8 | . | -3.8% | -5 | . | 20%
9. CC(=O)NCCOc1cccc2ccccc12
  2% | -11 | 2.8 | ? | 5 | -6% | -28%
10. CC(C)(C)c1cc(NC(=O)COC(=O)c2ccccc2O)n(-c2ccccc2)n1
  . | . | . | 3.1% | -10 | . | -27%
11. CCc1nc2cccnc2n1-c1ccc(CC(=O)O)cc1
  5% | 18 | ? | 0.0% | 5 | -4% | 18%[15.4 µM]
12. Cc1ccc(C(=O)NCC(=O)OCC(=O)Nc2ccccc2[N+](=O)[O-])cc1
  -3% | -2 | 3.7 | 0.6% | -12 | 3% | 2%
13. C=CCNc1nc(N(c2ccccc2)c2ccccc2)nc(-n2ccnc2)n1
  4% | 10 | 1.1 | -8.0% | 7 | 10% | 7%
14. COc1ccc(C(=O)NC(CC(=O)O)c2cc([N+](=O)[O-])ccc2Cl)c(SC)c1 (stereo not given)
  ? | ? | 1.9 | . | -9 | -17% | 4%[15.4 µM]
15. COc1cc(OC)c(NC(=O)Cn2cnc3sc(C)c(S(=O)(=O)N4CCOCC4)c3c2=O)cc1Cl
  9% | -7 | -2.0 | . | 12 | 17% | -16%
16. O=C(COC(=O)c1ccccc1C(=O)N1CCN(c2ccccc2)CC1)Nc1ccccc1
  -14% | -4 | -17 | . | 0 | 6% | 17%
17. CCN(CC(=O)NCc1ccc(F)cc1)C(=O)/C=C/c1ccc(OC)c(S(=O)(=O)NC(C)C)c1
  23% | 0 | 3.7 | . | -7 | 7% | -9%
18. CCCC(=O)N(CCc1ccccc1)Cc1nc2ccccc2c(=O)[nH]1
  2% | 4 | 1.4 | -1.3% | 22 | 14% | -19%
19. CC(C)n1cc(CN2CCC(C(=O)Nc3cccc(-c4cscn4)c3)CC2)cn1
  8% | -6 | -3.8 | -4.9% | 13 | -1% | ?
20. Cc1ccc(OCC(=O)N(Cc2cccc(Cl)c2)C2CCS(=O)(=O)C2)cc1C (stereo not given)
  -16% | 2 | -1.0 | -0.2% | 16 | 8% | 50%
21. Cc1cc(NC(=O)CSc2nc3ccccc3c(=O)n2CCCC(=O)NCc2ccccc2)n[nH]1
  7% | ? | 2.5 | -3.3% | -13 | 12% | ?
22. O=C(N/N=C/c1cccc(O)c1)c1ccc(-n2cnnn2)cc1
  -4% | 4 | . | . | 3 | . | 18%[15.4 µM]
23. Cc1ccc(C)c(N2CCN(C(=O)CCC(=O)Nc3nnc(CC(C)C)s3)CC2)c1
  15% | 7 | . | -1.4% | -1 | 17% | ?
24. CCOC(=O)c1cc(S(=O)(=O)NC2CCC(C)CC2)cn1C (stereo not given)
  8% | 4 | . | . | -5 | 9% | 2%
25. O=S(=O)(NCc1ccco1)c1ccc(Cl)cc1Cl
  7% | 3 | 3.5 | . | -28 | 7% | 12%
26. Cc1nnc(SCC(=O)c2c(N)n(C3CC3)c(=O)[nH]c2=O)n1C
  17% | . | . | . | -22 | . | 15%
27. Cc1ccc2c(c1)N(S(=O)(=O)c1cc(-c3onc(C)c3C)ccc1C)CCO2
  -11% | 1 | -1.8 | -3.5%&-1.2% | -12&-15 | -10% | -1%
28. CCOC(=O)c1c(CN2CCN(C)CC2)oc2ccc(OC)cc12
  12% | -3 | -0.1 | -25% | 7 | 10% | 8%
29. CCOCCn1c(N2CCN(c3ccccc3)CC2)nc2c1c(=O)[nH]c(=O)n2C
  -3% | 1 | 0.8 | . | 3 | 5% | -1%[15.4 µM]
30. CCN(C[C@H]1N[C@@](CC)(C(=O)OC)[C@H]2C(=O)N(C)C(=O)[C@@H]12)C(=O)c1ccc(F)cc1
  -3% | . | . | -2.6% | -7 | . | .
31. COc1ccc(CCNc2ncnc3c2c(C)c(C)n3CCO)cc1OC
  -17% | 16 | 5.4 | -11% | -17 | 2% | -36%
32. CCCOc1ccc(-c2nc(N)n[nH]2)cc1
  3% | -6 | 2.6 | -24% | -19 | 11% | -20%
33. O=C(NCCOc1ccccc1)C1CCCCC1
  5% | -6 | 1.0 | 0.9% | -6 | 12% | -46%[inhibitor]
34. Cc1cc(C(=O)COc2ccccc2C(N)=O)c(C)n1CC1CCCO1 (stereo not given)
  -10% | -1 | 2.4 | -1.2% | -10 | 4% | -15%[15.4 µM]
35. Cc1cccc(NC(=O)c2ncn3c2C(=O)NC[C@H]3C)c1
  . | . | . | 1.6% | -22 | . | 22%
36. Cc1ccc(S(=O)(=O)N2CCN(CCOc3ccccc3)CC2)cc1
  8% | -8 | . | -1.1% | -5 | . | -11%[15.4 µM]
37. CCN1CCN(c2cc(C)c3cc(NC(=S)N4CCN(c5ccc(F)cc5)CC4)ccc3n2)CC1
  5% | -1 | -0.5 | . | 13 | 8% | -4%[15.4 µM]
38. Cc1ccc(Sc2ccc(C(=O)N3CCOCC3)cc2[N+](=O)[O-])cc1
  0% | -21 | -4.7 | -0.1% | 6 | 0% | ?
39. CC(=O)Nc1cc2nc(C)n(Cc3ccccc3)c2nc1C
  2% | 0 | 1.5 | . | -1 | 10% | 6%
40. O=c1nc(/C=C/c2cc([N+](=O)[O-])ccc2Cl)cc(C(F)(F)F)[nH]1
  -7% | 3 | -1.5 | -4.6% | 9 | -6% | -12%
41. CCC(NC(=O)c1ccc([N+](=O)[O-])cc1[N+](=O)[O-])c1ccccc1 (stereo not given)
  9% | -6 | 2.0 | -3.0% | 7 | -1% | -19%
42. Cc1ccc(CNS(=O)(=O)c2ccc3c(c2)NC(=O)CS3)cc1
  4% | -20 | . | -0.8% | 0 | 13% | -2%
43. CCCc1ccc(-c2cc(C(=O)NN3CCOCC3)c3ccccc3n2)cc1
  9% | -8 | -3.6 | ? | 20 | -16% | -47%[inhibitor]
44. Cc1cccc(C(=O)O/N=C2/CC3CCC2(C)C3(C)C)c1 (stereo not given)
  6% | -19 | 6.2 | 1.0% | 65 | -8% | -1%
45. COc1ccc(NC(=O)CN(C)C(=O)CCCc2nc3ccccc3s2)cc1
  11% | 5 | . | 1.3% | 4 | . | -11%
46. CCCCN(CC)CCNC(=O)CNC(=O)Cn1ccc2ccccc2c1=O
  13% | -7 | -1.3 | -25% | 7 | 15% | -39%
47. O=C(COC(=O)/C=C/c1ccc(F)cc1)Nc1cccc(S(=O)(=O)N2CCCC2)c1
  -11% | 7 | 3.0 | 0.8% | 22 | 17% | -39%[inhibitor]
48. Cc1ccc(NC(=O)COC(=O)CCOc2ccccc2C)cc1
  4% | 15 | -0.2 | . | -6 | 16% | 35%
49. COc1ccc2cc(CCNS(=O)(=O)c3ccc(NC(C)=O)cc3)c(=O)[nH]c2c1
  -22% | 2 | 3.0 | -1.1% | -13 | 12% | 24%[15.4 µM]
50. C[C@H](CO)N1C[C@H](C)[C@@H](CN(C)C(=O)Nc2ccc(C(F)(F)F)cc2)Oc2c(NS(=O)(=O)c3ccc(F)cc3)cccc2C1=O
  -19% | . | . | -5.8% | 22 | . | .

(listing goes on)
Results follow in this order: gsp antag | TRPV1 potentiator | Menin MLL FP FL | ClpP mod | TRPML1 blocker | Sfp PPTase inh | gsp agonist
51. Cc1nnc(SCC(=O)NCCN2C(=O)CSC2=O)n1-c1ccccc1
  -1% | 5 | 0.0 | . | 2 | 24% | -6%
52. O=C(O)c1cc(-c2ccc(/C=C3/SC(=S)N(Cc4ccccc4)C3=O)o2)ccc1Cl
  -15% | -23 | ? | . | 11 | 50µM* | 10%[15.4 µM]
53. Cn1c(=O)[nH]c(=O)c2c1nc([N+](=O)[O-])n2Cc1ccccc1
  -4% | 1 | -0.4 | . | 2 | -15% | 10%[15.4 µM]
54. CN(C)C(=O)c1ccccc1Sc1ccc(Cl)cc1Cl
  -6% | 5 | -1.7 | -2.3% | 11 | -20% | 16%
55. COC(=O)[C@@]12CCCCN1[C@H](c1ccc(-c3ccc(C(C)=O)cc3)cc1)[C@H]1C(=O)N(C)C(=O)[C@H]12
  -9% | ? | . | -2.4% | 28 | . | .
56. CC(C)C(NC(=O)c1ccc(Cl)cc1)C(=O)NC1=NCCS1 (stereo not given)
  8% | -10 | -2.6 | -1.3% | -6 | 18% | -23%
57. O=C(OCC(=O)N1CCN(C(=O)c2ccco2)CC1)c1cc(-c2ccc(F)cc2)nc2ccccc12
  -41% | -9 | 0.0 | -21% | 55 | -12% | -2%

Screens from PubChem BioAssay.

Random draw from the library. Share with any hit: about 4.9%.
